Assay outcomes (PubChem BioAssay)
CtBP-E1A inh: blocks the CtBP interaction with E1A. AlphaScreen GST-E1A/His-CtBP binding, 1536-well; stronger effect = lower value; control for the full effect not named in the record. activity change, % (test concentration not listed). 0.49% of 340,000 active. AID 651724; in the data active means activity change below about -65%; inconclusive means about -30% to -65%; inactive means above about -30%; also: % is scaled to controls: 0 for no effect and ±100 for the full control effect; compound concentration not given in the record
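Protein mix (5X: 125 nM each GST-E1A, His-CtBP) was incubated with pinned compound 2 h at 37 deg C in dark, in 50 mM Tris pH 8.0 buffer with 300 mM NaCl. Glutathione donor and nickel acceptor beads followed; AlphaScreen signal read after 1 h.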
Six1-Eya2 inh: Six1/Eya2 interaction inhibition. activity change, % (concentration not given with the values). 0.56% of 360,000 active. AlphaScreen GST-Six1/His-Eya2 binding, biochemical; stronger effect = lower value; control for the full effect not named in the record. Q15475+O00167. AID 651725; in the data active = activity change below about -65%; inconclusive = about -30% to -65%; inactive = above about -30%; also: % is scaled to controls: 0 for no effect and ±100 for the full control effect
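Homogeneous AlphaScreen proximity assay pairing GST-Six1 with His-tagged Eya2 (added as 5X mix: 250 nM and 500 nM) in 50 mM Tris pH 8.0, 300 mM NaCl, 1 mM TCEP. Glutathione donor and nickel acceptor beads; 1 h, 37 °C, dark.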
D2 potentiator: human D2 receptor positive allosteric modulation; 0.23% of 360,000 active; potentiation, % (test concentration not listed); AID 624464; DiscoveRx D2 beta-arrestin cells, luminescence, 90 min; 100% = 57 uM dopamine signal; P14416; active = potentiation of 50% or more; inconclusive = 30% to 50%; inactive = 30% or less;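 also: compound concentration not given in the record; tested on top of an EC20 dose of dopamine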
Target sequence (P14416 whole entry, looked up): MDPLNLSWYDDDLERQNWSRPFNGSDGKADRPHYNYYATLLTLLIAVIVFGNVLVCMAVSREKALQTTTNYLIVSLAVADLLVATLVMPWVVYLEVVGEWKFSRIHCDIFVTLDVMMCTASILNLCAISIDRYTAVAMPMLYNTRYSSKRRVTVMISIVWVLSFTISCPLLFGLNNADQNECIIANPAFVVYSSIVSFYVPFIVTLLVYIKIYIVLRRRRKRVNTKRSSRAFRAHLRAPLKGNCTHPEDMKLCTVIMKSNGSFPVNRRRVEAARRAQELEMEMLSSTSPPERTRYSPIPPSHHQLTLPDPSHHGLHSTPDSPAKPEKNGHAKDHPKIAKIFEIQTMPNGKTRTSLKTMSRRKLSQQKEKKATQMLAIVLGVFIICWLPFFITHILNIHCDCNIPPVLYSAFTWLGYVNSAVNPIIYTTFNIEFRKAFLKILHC
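PathHunter D2 cells, attached overnight at 37 deg C, received compound in DMSO plus dopamine at EC20 (50 nM final) for 90 min at 37 deg C. Beta-arrestin recruitment was read as luminescence after 1 h with detection reagent at ambient temperature.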
PINK1 expr mod: PINK1 expression modulation | PINK1 immunofluorescence, high-content cytometry, 24 h | Potency, µM (top dose mostly 76.6 µM), inactives show at the highest dose activation (PINK1 increase), actives largely listed as activators | 0.2% of 410,000 active | AID 624263; active = well fitted activation curve with a large enough effect; inconclusive = small, poorly fitted or top-dose-only effect; inactive = flat fitted curve, though single readings scatter; cell line not stated here;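 also: potency is read from the fitted curve at half-maximal effect; % of control where 0% means no effect; nearly all actives have a fitted effect of over 65% in size; a mitochondrial uncoupler was the plate control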
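PINK1 protein level read as immunofluorescence by microplate cytometer in a fixed, stained stable cell line after 24 h exposure to five compound concentrations, with CCCP as control.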
D2 agonist: activates the human D2 dopamine receptor | P14416 | DiscoveRx PathHunter D2 beta-arrestin, luminescence, 90 min; 100% = 57 uM dopamine signal | activation, % (test concentration not listed) | 0.084% of 360,000 active; in the data active = activation above about 40%; inconclusive = about 15% to 40%; inactive = below about 15%; also: compound concentration not given in the record; the text of the record calls up to 30% inactive
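Agonist mode: compounds alone added to overnight-plated D2 PathHunter cells for 90 min at 37 C, with 57 uM final dopamine (EC100) defining full response. Beta-arrestin recruitment detected by chemiluminescent reagent, read after 1 h at ambient temperature.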
TRPML1 agonist: agonists of human TRPML1 channel | activation, % (test concentration not listed) | 0.12% of 410,000 active | TRPML1-expressing cells, Ca2+ dye fluorescence, FDSS; host cell line not named in the record; reference of the full effect not given here | Q9GZU1; in the data active = activation above about 50%; inconclusive = about 30% to 50%; inactive = below about 30%; also: 0% is about no effect; the text of the record puts the active cut at 80%
Target sequence (Q9GZU1 whole entry, looked up): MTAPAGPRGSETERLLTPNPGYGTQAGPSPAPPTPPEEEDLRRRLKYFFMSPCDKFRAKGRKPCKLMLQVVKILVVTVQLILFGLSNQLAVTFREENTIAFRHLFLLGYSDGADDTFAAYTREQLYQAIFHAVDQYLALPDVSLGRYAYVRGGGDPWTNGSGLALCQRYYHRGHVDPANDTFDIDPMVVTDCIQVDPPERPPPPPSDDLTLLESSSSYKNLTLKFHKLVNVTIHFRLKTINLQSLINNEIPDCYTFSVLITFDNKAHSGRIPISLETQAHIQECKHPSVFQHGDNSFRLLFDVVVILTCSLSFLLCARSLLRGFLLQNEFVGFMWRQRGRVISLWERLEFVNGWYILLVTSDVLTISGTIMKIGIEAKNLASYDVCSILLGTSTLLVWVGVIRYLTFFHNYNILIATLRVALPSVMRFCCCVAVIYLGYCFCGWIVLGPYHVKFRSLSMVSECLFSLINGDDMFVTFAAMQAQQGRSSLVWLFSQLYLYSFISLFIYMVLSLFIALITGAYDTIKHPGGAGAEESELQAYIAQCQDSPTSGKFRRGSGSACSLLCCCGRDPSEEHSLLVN
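Calcium fluorescence on an FDSS kinetic reader gave the read-out. Tet-induced TRPML1-DL cells were plated overnight, dye-loaded (Ca8 with quencher, 45-90 min, room temperature, dark), then read 110 s after compound addition, and again 110 s after 4uM final 54-4 (EC80).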
* marks the source's active call; other numbers are inactive results; ? = inconclusive; nt = not tested or not shown; & = joins results of further samples; [ ] = dose if it differs, or a comment.

entry | SMILES | CtBP-E1A inh | Six1-Eya2 inh | D2 potentiator
1 | COc1cc(OC)c2ccc(=O)oc2c1C(CCN1CCCC1)c1ccc(N(C)C)cc1 (configuration not stated) | -16.4 | -16.4 | -22.3
2 | Cc1ccc(C(=O)Nc2c(C)n(C)n(-c3ccccc3)c2=O)cc1S(=O)(=O)N1CCOCC1 | 6.7 | 7.2 | -14.2
3 | COc1ccc(CCNC(=O)c2cccc(S(=O)(=O)N3CCCCC3)c2)cc1 | 6.1 | -5.1 | 1.2
4 | Cc1ccc2cc3c(NC(=O)C(C)C)nn(C)c3nc2c1 | -16.3 | -9.2 | 8.2
5 | C[C@@H]1COC(=O)[C@@H](CC(=O)OC(C)(C)C)C/C=C\C[C@@H](CC(=O)N[C@H](CO)Cc2ccccc2)C(=O)N1 | nt | -4.3 | -4.0
6 | COc1cccc(C(=O)Nc2nnc(C(C)C)s2)c1 | 4.9 | 9.3 | 7.3
7 | C=CCNC(=O)c1sc(-c2ccccc2)nc1C | -9.5 | 0.9 | -4.4
8 | CCSc1nc(-c2ccccc2)c2cc(Cl)ccc2n1 | 5.7 | 2.4 | -18.1

entry | PINK1 expr mod | D2 agonist | TRPML1 agonist
1 | 2.9% | -0.9 | 0.6&-0.1
2 | -1.8% | -3.8 | -0.5
3 | -0.5% | -0.1 | 0.5
4 | 1.8% | -0.4 | -0.4
5 | 2.5% | 0.1 | -0.8
6 | 2.1% | -3.4 | -0.3
7 | -1.3% | 1.5 | 1.6
8 | 6.4% | -0.5 | -0.5

Continuation.
entry | SMILES | CtBP-E1A inh | Six1-Eya2 inh | D2 potentiator
9 | O=C(CN1C(=O)CCC1=O)Nc1ccc(S(=O)(=O)N2CCOCC2)cc1 | -1.4 | -1.0 | -9.1
10 | O=C(Nc1ccc(S(=O)(=O)N2CCCC2)cc1)c1cc(F)c(F)cc1Cl | -3.9 | 7.6 | -20.5
11 | Cc1c(CN(C)C(=O)c2nn(C)cc2[N+](=O)[O-])cnn1C | -0.1 | 5.2 | -3.3
12 | Oc1cccc(Nc2ncnc3ccccc23)c1 | 8.2 | -0.9 | -10.0
13 | CC1Cc2ccccc2N1C(=O)COC(=O)c1cccc(Br)c1 (configuration not stated) | 10.7 | 12.0 | -0.1
14 | Cc1cc(C(F)(F)F)nn1CC(=O)N(C)c1ccccc1 | 8.7 | 3.6 | 0.7
15 | CCC(=O)Nc1c2c(nn1-c1ccc(OC)cc1)CS(=O)C2 (configuration not stated) | 2.7 | 25.9 | -2.7
16 | O=C(NCc1nnnn1-c1ccc(F)cc1)c1ccc([N+](=O)[O-])o1 | 0.5 | 0.4 | 9.3

entry | PINK1 expr mod | D2 agonist | TRPML1 agonist
9 | -0.9%[38.3 µM] | -1.7 | -0.7
10 | 1.9% | -0.2 | 1.2
11 | 1.3% | 0.9 | 2.6
12 | -0.4%[38.3 µM] | -2.3 | -0.4
13 | 2.8% | 2.2 | 3.5
14 | 3.7% | 0.1 | -0.9
15 | 1.2% | 4.9 | -0.7
16 | 5.1% | 9.1 | -0.3

New compounds follow:
entry | SMILES | CtBP-E1A inh | Six1-Eya2 inh | D2 potentiator
17 | COc1ccc(NC(=O)C(=S)NC2CCCCC2)cc1 | 3.4 | -6.7 | -10.2
18 | COc1ccc(CNC(=O)CN2C(=O)NC(C)(c3ccc(Cl)cc3)C2=O)cc1 (configuration not stated) | -2.1 | -1.9 | 0.1
19 | O=c1[nH]c(=S)[nH]c2c1C(c1cccc(C(F)(F)F)c1)OC(CCc1ccccc1)C2 (configuration not stated) | 0.2 | 5.1 | nt
20 | CCC1CCCCN1C(=O)c1cc(COc2ccc3ncccc3c2)on1 (configuration not stated) | 6.6 | -8.5 | 6.5
21 | CCN(CC)CCSc1nnc2c3ccccc3n(CCc3ccccc3)c2n1 | nt | -12.9 | -45.5
22 | Cc1cc(-c2cccc(Br)c2)c(C#N)c(N)n1 | -7.2 | -0.7 | -12.8
23 | Cc1ccc(N(C(=O)CCC(=O)Nc2ccccn2)C(C(=O)NC(C)C)c2ccc(F)cc2)cc1 (configuration not stated) | -7.2 | 2.9 | -0.5
24 | CN(Cc1ccc(F)cc1)C(=O)CNC(=O)C1CCCCC1 | 0.7 | 3.1 | -5.0

entry | PINK1 expr mod | D2 agonist | TRPML1 agonist
17 | 10.2% | -3.1 | -0.1
18 | 1.1% | 4.1 | -0.6
19 | 5.1% | nt | -0.4
20 | 2.5% | -1.1 | 1.3
21 | -1.8% | -1.8 | 3.5
22 | 0.3% | 1.0 | -0.1
23 | 0.6% | 0.2 | 0.2
24 | -0.7% | -2.1 | -0.4

Laid out differently: results already given
20: CCC1CCCCN1C(=O)c1cc(COc2ccc3ncccc3c2)on1 (configuration not stated)
  CtBP-E1A inh: 6.6
  Six1-Eya2 inh: -8.5
  D2 potentiator: 6.5
  PINK1 expr mod: 2.5%
  D2 agonist: -1.1
  TRPML1 agonist: 1.3
21: CCN(CC)CCSc1nnc2c3ccccc3n(CCc3ccccc3)c2n1
  CtBP-E1A inh: nt
  Six1-Eya2 inh: -12.9
  D2 potentiator: -45.5
  PINK1 expr mod: -1.8%
  D2 agonist: -1.8
  TRPML1 agonist: 3.5

(further entries)
entry | SMILES | CtBP-E1A inh | Six1-Eya2 inh | D2 potentiator
25 | CCCc1nc(-c2ccc(-c3ccc(F)cc3)cc2)no1 | 12.2 | 15.2 | 4.2
26 | CN(C)Cc1n[nH]c(=O)c2ccccc12 | nt | -11.7 | -4.6
27 | CCOC(=O)c1[nH]c(C)c(C(=O)Nc2ccc(C)c(C)c2)c1C | -1.6 | 0.8 | -0.7
28 | CCOC(=O)N1CCN(C(=S)Nc2cc(OC)c(OC)cc2C(=O)OC)CC1 | -0.9 | -3.7 | -1.2
29 | COc1ccc(CN(C)C(=O)c2cccc(S(=O)(=O)NCc3ccccc3)c2)cc1F | -1.3 | -1.4 | 1.1
30 | CN=c1scc(C)n1/N=C/c1cc(Br)c(O)c(Br)c1 | 36.5 | 6.9 | -1.9
31 | Cn1cnc([N+](=O)[O-])c1Oc1ccc2ccccc2c1 | -8.0 | 2.1 | 23.1
32 | N=C1C(c2nc3ccccc3s2)=C(O)CN1NC(=O)c1ccco1 | 2.0 | -7.6 | 1.0

entry | PINK1 expr mod | D2 agonist | TRPML1 agonist
25 | -2.1% | 2.8 | -1.0
26 | -0.1% | -9.0 | -0.3
27 | 5.5% | -1.7 | 2.3
28 | ? | -1.1 | -0.5
29 | 0.3% | -3.2 | 0.1
30 | 0.6% | -3.0 | 0.6
31 | -0.7% | 8.8 | 0.9
32 | 1.4% | -1.7 | 1.1

Carrying on.
entry | SMILES | CtBP-E1A inh | Six1-Eya2 inh | D2 potentiator
33 | Oc1cccc(Nc2nc(N3CCOCC3)nc(N3CCOCC3)n2)c1 | -0.1 | -6.6 | 5.2
34 | COc1ccccc1CN1C(=NC(=O)C2CCCCC2)SC2CS(=O)(=O)CC21 (configuration not stated) | 0.1 | 2.4 | -8.0
35 | O=C(CNc1cccc([N+](=O)[O-])c1)NCCCc1ccccc1 | -8.1 | -1.5 | -5.7
36 | CCN1CCN(c2cc(N3CCc4ccccc4C3)c(F)cc2[N+](=O)[O-])CC1 | ? | ? | -31.8
37 | Cc1ccc(C(=O)N2CCCC(N3CCN(c4ccccc4C)CC3)C2)c(=O)[nH]1 (configuration not stated) | nt | 0.5 | -15.1
38 | CCN(Cc1ccccc1)S(=O)(=O)c1c[nH]c(C(=O)OC)c1 | -24.5 | 12.2 | -3.8
39 | CCOC(=O)C[C@H]1c2cc(F)ccc2S(=O)(=O)N1C1CCCCC1 | 6.2 | 3.1 | -12.0
40 | COc1ccccc1C(=O)Nc1ccc(C2=NNC(=O)CC2C)cc1 (configuration not stated) | -6.1 | 3.6 | -0.3

entry | PINK1 expr mod | D2 agonist | TRPML1 agonist
33 | -0.9% | 3.4 | -0.5
34 | 9.3% | -4.1 | -0.3
35 | 1.4% | -3.6 | 0.6
36 | -5.7% | -3.6 | 0.0
37 | 3.2% | -0.7 | 1.8
38 | 1.5% | -2.8 | 1.8
39 | 0.2% | -3.3 | -0.3&-0.3
40 | -2.5% | -3.6 | 0.6

The results go on.
entry | SMILES | CtBP-E1A inh | Six1-Eya2 inh | D2 potentiator
41 | Cc1ccc(CNC(=O)Cn2nnc(C(=O)Nc3cc(C)ccc3C)c2N)cc1 | 0.9 | -0.6 | -6.9
42 | CCc1ccc(Nc2n[n+](-c3ccccc3)c(-c3cc(OC)c(OC)cc3Br)s2)cc1 | -0.5 | -9.3 | -56.1
43 | O=C(CSc1nnnn1-c1cccc2c1CCCC2)N1CCCC1 | -2.1 | -1.6 | -6.1
44 | COc1ccc(C(=N/O)/C(=N/O)c2ccc(OC)cc2)cc1 | -3.3 | -1.9 | 2.3
45 | Cc1ccc(C2=NOC3(CC(=O)N(c4ccccc4)C3=O)C2)cc1 (configuration not stated) | nt | -0.1 | -3.0
46 | O=S(=O)(c1cccc(C(F)(F)F)c1)N1c2ccccc2-n2cccc2C1c1cccnc1 (configuration not stated) | 1.4 | -6.5 | -19.3
47 | CC(=O)c1ccc(NC(=O)CC(C)S(=O)(=O)c2ccc3c(c2)CCN3C(C)=O)cc1 (configuration not stated) | 0.6 | 8.2 | -16.5
48 | CC(O)(c1cccc(F)c1)c1nc(/C=C/c2ccccc2)cs1 (configuration not stated) | 9.1 | 1.8 | -13.0

entry | PINK1 expr mod | D2 agonist | TRPML1 agonist
41 | 5.3% | -5.5 | -0.7
42 | 0.4% | -2.4 | -0.6
43 | -1.6% | -8.2 | -1.4
44 | -2.3%[38.3 µM] | 1.9 | 0.8
45 | -0.9% | -2.7 | 0.6
46 | ? | -7.4 | 28.5
47 | 0.8% | 1.8 | 1.1
48 | 18.6% | 4.5 | 0.2

Following part
entry | SMILES | CtBP-E1A inh | Six1-Eya2 inh | D2 potentiator
49 | Cc1ccc2c(c1)N(C(=O)CCC(=O)NCc1cccnc1)CC(C)O2 (configuration not stated) | 1.4 | -1.6 | -3.3
50 | CC(C)Cc1ccc(C(C)C(=O)Nc2cccnc2)cc1 (configuration not stated) | 0.0 | 9.8 | -6.1
51 | COc1ccc2[nH]c3c(c2c1)CCN1C(=O)N([C@@H](C)C(=O)NCc2ccccc2)C(=O)[C@]31C | ? | -5.6 | -18.3
52 | CC(C)(C)NC(=O)N1CCN(c2nc3ccc(Cl)cc3s2)CC1 | 3.3 | 4.8 | -6.1
53 | COc1ccc(NC2=NCC(=O)N2c2ccccc2F)cc1 | 4.7 | 1.5 | -0.9
54 | CC1=CC=CN2C1=NC(=O)CC2(C)C(=O)N(CC(=O)NC1CCCC1)Cc1ccccc1 (configuration not stated) | 2.2 | -1.1 | 7.8
55 | CC1CN(S(=O)(=O)c2cccc(C(=O)Nc3ccc(S(=O)(=O)Nc4ncccn4)cc3)c2)CC(C)O1 (configuration not stated) | 0.9 | -3.4 | -8.5
56 | CCCC(c1nnnn1C1CCCCC1)N1CCN(C(=O)c2ccco2)CC1 (configuration not stated) | 3.5 | 4.4 | -4.8

entry | PINK1 expr mod | D2 agonist | TRPML1 agonist
49 | 1.3% | -5.1 | -0.7
50 | 0.2% | -7.4 | 19.3
51 | 10.1% | -2.7 | nt
52 | 2.1% | 5.8 | -0.1
53 | -0.2% | -3.5 | -0.3
54 | 2.3% | -3.1 | -0.3
55 | -0.2% | -4.0 | -0.4
56 | 1.1% | -0.8 | -0.2
